# PINK1 modulator: modulators of PINK1 expression; Potency, µM (doses to about 76.6 µM), inactives show at the highest dose activation (PINK1 increase), actives largely listed as activators; AID 624263; 410,000 compounds, 0.2% hits; PINK1 immunofluorescence, high-content cytometry, 24 h; active = well fitted activation curve with a large enough effect; inconclusive = small, poorly fitted or top-dose-only effect; inactive = flat fitted curve, though single readings scatter; cell line not stated here;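 further: potency means the concentration at half of the fitted maximal effect; % of control where 0% means no effect; nearly all actives have a fitted effect of over 65% in size; a mitochondrial uncoupler was the plate control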
#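 Fluorescence from anti-PINK1 antibody, together with nuclear and cell stains, was scanned on a laser-scanning cytometer. Before staining, stable-line cells were incubated 24 hours with compounds at 5 concentrations; primary antibody 12 h at 10 degrees C.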
# D2 ag: human D2 receptor agonism in beta-arrestin assay. AID 624465. DiscoveRx PathHunter D2 beta-arrestin, luminescence, 90 min; 100% = 57 uM dopamine signal. 360,000 compounds, 0.084% hits. activation, % (test concentration not listed). P14416; in the data active = activation above about 40%; inconclusive = about 15% to 40%; inactive = below about 15%; further: compound concentration not given in the record; the text of the record calls up to 30% inactive
#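 Agonist mode: compounds alone added to overnight-plated D2 PathHunter cells for 90 min at 37 C, with 57 uM final dopamine (EC100) defining full response. Beta-arrestin recruitment detected by chemiluminescent reagent, read after 1 h at ambient temperature.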
# D2 PAM: human D2 receptor positive allosteric modulation. AID 624464. DiscoveRx D2 beta-arrestin cells, luminescence, 90 min; 100% = 57 uM dopamine signal. P14416. 360,000 compounds, 0.23% hits. potentiation, % (no concentration beside the values); active = potentiation of 50% or more; inconclusive = 30% to 50%; inactive = 30% or less;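 further: compound concentration not given in the record; tested on top of an EC20 dose of dopamine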
#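 PathHunter beta-arrestin assay in DiscoveRx D2 cells. Compounds were added with an EC20 of dopamine (50 nM final) for 90 min at 37 deg C. Luminescence was read 1 h after detection reagent, with 57 uM dopamine as the EC100 control.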
# TRPML1 ag: agonists of human TRPML1 channel; Q9GZU1; 410,000 compounds, 0.12% hits; activation, % (concentration not given with the values); TRPML1-expressing cells, Ca2+ dye fluorescence, FDSS; host cell line not named in the record; reference of the full effect not given here; in the data active = activation above about 50%; inconclusive = about 30% to 50%; inactive = below about 30%; further: 0% is about no effect; the text of the record puts the active cut at 80%
#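 Cells: TRPML1-DL, 1X Tet inducer, ~16 h at 37 degrees C/5% CO2. Dye: ABD Ca8 no-wash + quencher, 45-90 min RT. Read: 10 s baseline, compound add, 110 s agonist phase; 54-4 EC80 (4uM final), 110 s antagonist phase.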
# Six1-Eya2 blk: inhibitors of human Six1/Eya2 interaction | Q15475+O00167 | AlphaScreen GST-Six1/His-Eya2 binding, biochemical; stronger effect = lower value; control for the full effect not named in the record | activity change, % (no concentration beside the values) | 360,000 compounds, 0.56% hits; in the data active = activity change below about -65%; inconclusive = about -30% to -65%; inactive = above about -30%; further: on the % scale 0 is the no-effect control and ±100 the full control effect
# Target sequence (O00167 whole entry, looked up): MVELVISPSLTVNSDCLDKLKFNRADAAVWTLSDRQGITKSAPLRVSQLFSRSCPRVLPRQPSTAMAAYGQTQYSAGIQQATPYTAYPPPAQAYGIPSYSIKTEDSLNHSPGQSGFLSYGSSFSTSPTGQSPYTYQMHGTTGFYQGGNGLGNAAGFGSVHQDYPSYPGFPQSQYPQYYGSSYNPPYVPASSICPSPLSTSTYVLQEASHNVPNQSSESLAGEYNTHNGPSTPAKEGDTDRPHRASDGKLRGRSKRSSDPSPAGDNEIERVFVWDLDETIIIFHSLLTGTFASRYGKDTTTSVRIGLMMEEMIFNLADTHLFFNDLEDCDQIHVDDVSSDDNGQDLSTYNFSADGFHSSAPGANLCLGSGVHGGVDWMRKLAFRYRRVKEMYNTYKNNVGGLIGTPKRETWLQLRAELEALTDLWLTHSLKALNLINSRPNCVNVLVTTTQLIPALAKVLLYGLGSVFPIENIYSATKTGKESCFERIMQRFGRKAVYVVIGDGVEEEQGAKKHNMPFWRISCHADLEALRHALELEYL
# Target sequence (Q15475 whole entry, looked up): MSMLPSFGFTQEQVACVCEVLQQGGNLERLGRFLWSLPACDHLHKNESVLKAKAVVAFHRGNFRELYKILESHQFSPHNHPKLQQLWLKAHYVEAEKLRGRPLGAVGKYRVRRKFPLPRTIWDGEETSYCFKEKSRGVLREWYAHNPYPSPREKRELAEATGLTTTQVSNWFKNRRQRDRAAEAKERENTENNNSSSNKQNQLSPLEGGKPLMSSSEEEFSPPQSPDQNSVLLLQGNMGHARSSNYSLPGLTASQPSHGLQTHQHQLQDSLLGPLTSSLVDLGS
#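 AlphaScreen luminescence read after one hour at 37 °C in darkness. Pin-transferred compounds met GST-Six1 and His-Eya2 protein (5X stock 250 nM/500 nM) plus glutathione donor and Ni-chelate acceptor beads (5X, 50 ug/mL).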
# CtBP-E1A blk: blocks the CtBP interaction with E1A; AID 651724; 340,000 compounds, 0.49% hits; activity change, % (concentration not given with the values); AlphaScreen GST-E1A/His-CtBP binding, 1536-well; stronger effect = lower value; control for the full effect not named in the record; in the data active means activity change below about -65%; inconclusive means about -30% to -65%; inactive means above about -30%; further: on the % scale 0 is the no-effect control and ±100 the full control effect
#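 AlphaScreen with 125 nM GST-E1A and 125 nM His-CtBP (5X stocks) in Tris pH 8.0, 300 mM NaCl, BSA, Tween 20, TCEP. Compounds preincubated 2 h at 37 deg C, then glutathione donor/nickel acceptor beads added for 1 h at 37 deg C in dark.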
# Starred values were filed as active, the others as inactive; ? = inconclusive; . = not tested or not shown; & = joins results of further samples; [ ] = remark or other dose.
# The first 2 entries, ahead of the listing:
SMILES,PINK1 modulator,D2 ag,D2 PAM,TRPML1 ag,Six1-Eya2 blk,CtBP-E1A blk
Cc1cc(C)cc(NC(=S)/C(=C(\[O-])c2ccc(Cl)cc2Cl)[n+]2ccccc2)c1,2.2%,-3.2,-9,.,-1,-4
C=C(C)CNC(=S)N/N=C/C1=CCC2CC1C2(C)C (configuration not stated),5.6%,-2.2,-7,2.8,-1,4

# This part in full, from the start:
SMILES,PINK1 modulator,D2 ag,D2 PAM,TRPML1 ag,Six1-Eya2 blk,CtBP-E1A blk
Cc1cc(C)cc(NC(=S)/C(=C(\[O-])c2ccc(Cl)cc2Cl)[n+]2ccccc2)c1,2.2%,-3.2,-9,.,-1,-4
C=C(C)CNC(=S)N/N=C/C1=CCC2CC1C2(C)C (configuration not stated),5.6%,-2.2,-7,2.8,-1,4
O=C(CC1C(=O)NCCN1Cc1c(F)cccc1Cl)NCCCn1ccnc1 (configuration not stated),0.9%,1.4,4,-0.3,-1,4
COc1ccccc1CNC(=O)CSCc1cnn(-c2ccccc2)c1-n1cccc1,-0.8%,5.0,2,2.5,-13,-4
Cc1cc(N2CCN(S(=O)(=O)c3ccccc3)CC2)nc2c(C)cccc12,1.7%,-3.9,-12,1.1,0,-7
COc1ccc(-n2nc(C(=O)NCC(=O)N3CCN(c4ccc(F)cc4)CC3)c3ccccc3c2=O)c(OC)c1,0.4%,-9.2,-11,1.9,-6,-5
O=C(/C=C/c1ccc(Br)cc1)NCCCn1ccnc1,-0.1%,-0.7,-32,.,3,.
N#Cc1ccc(NCC(=O)Nc2ccc(S(=O)(=O)N3CCCCC3)cc2)cc1,3.0%,1.2,1,1.1,-2,1
COc1ccc(OC)c(NC(=O)CN(C)S(=O)(=O)c2ccc3nc(C)sc3c2)c1,1.8%,-3.5,11,0.5,0,0
CCn1c(SCC(=O)Nc2ccc(C)cc2)nnc1-c1ccc(O)cc1,-3.5%,-2.2,-14,2.9,-4,-21
Nc1ccc(N2CCOCC2)c(S(=O)(=O)Nc2cc(Cl)ccc2Cl)c1,-0.9%,1.5,-4,-0.8,0,-2
Cc1ccc(C(=O)Nc2ncccc2S(=O)(=O)c2ccccc2)cc1,5.4%,-8.6,-2,1.2,9,6
N=c1oc2ccccc2cc1C(=O)N/N=C/c1ccccc1,0.7%,-5.4,-6,-0.3,2,-5
COc1ccc(CNC(=O)C[C@H]2C[C@H](C(=O)N(C(C)C)C(C)C)[C@@]3(C)c4[nH]c5cc(-c6ccco6)ccc5c4CCN3C2=O)cc1OC,4.9%,-0.8,-6,-0.6,-21,?
CCc1cccc(C)c1NS(=O)(=O)c1cccs1,3.5%,-4.3,-5,0.3,-2,5
CCOc1ccc(CCN2C(=S)N([C@@H](Cc3ccc(O)cc3)CN3CCC[C@@H]3CN3C(=S)NC[C@@H]3CC(C)C)C[C@@H]2Cc2ccc(O)cc2)cc1,0.8%,0.0,-9,-0.5,-12,-15
Cc1cc(C)cc(OCCNC(=O)C(C)N2C(=O)c3ccccc3C2=O)c1 (configuration not stated),11%,-3.3,-9,-0.6,0,2
CC(=O)c1cccc(-c2ccnc3c2CC(C(=O)NCc2ccccc2)O3)c1 (configuration not stated),4.9%,-1.3,-7,-0.8,12,-13
Cc1ccc(C(=O)N/C(=C\c2cccs2)C(=O)NCCCn2ccnc2)cc1C,1.2%,0.0,-3,-0.2,-14,-15
CC(=O)N1CCCc2cc(S(=O)(=O)N(CC(C)C)CC(C)C)ccc21,-0.5%,-0.4,-4,-0.7,4,3
CCc1noc(C)c1C(=O)Nc1cccc2ncccc12,-1.1%,-1.5,-5,0.3,3,2
C[C@@H]1CN(Cc2nc(-c3cccs3)no2)C[C@H](C)O1,-0.2%,-2.2,3,.,5,5
Cc1cccc(OCCCC(=O)Nc2ccccc2C(F)(F)F)c1,1.0%,-2.4,-8,0.5,16,20
CCN(Cc1ccncc1)Cc1nc(-c2ccc(C(=O)OC)cc2)no1,0.5%,5.1,-4,3.0,-9,-1
CC(C)(C)OC(=O)NCC12C=CC(O1)C1C(=O)N(Cc3ccccc3)C(=O)C12 (configuration not stated),2.5%,0.7,-12,-0.7,2,12
CCN=c1scc(C)n1/N=C/c1cc(Br)c(O)c(Br)c1,1.9%,-2.0,-1,0.4,-10,-15
CCc1ccc(NC(=O)CSc2nnnn2-c2cccnc2)cc1,-2.3%,-1.5,-4,1.4,2,-2
CCOC(=O)c1sc(Nc2ccccc2)nc1C,1.9%,2.0,-5,2.1,-4,8
COc1ccc2ccc(=O)oc2c1CC(=O)C(C)C,0.3%,-2.1,-16,.,1,1
O=C(Nc1ccc(S(=O)(=O)NCC2CCCO2)cc1)c1cccc(F)c1 (configuration not stated),1.0%,6.8,-1,0.6,3,2
CC(=O)NNC(=O)c1cc2sccc2s1,-1.4%,-7.1,-6,0.3,3,0
O=C(CC(c1ccccc1)c1ccccc1O)NCCc1ccccc1 (configuration not stated),1.2%,-2.1,3,0.1,-15,5
O=C(Nc1ccccc1F)Nc1ccccc1OC(F)F,-1.2%,-5.6,-7,3.3,11,1
CC(C)Cc1ccc(/C=C/C(=O)NC2CC2)cc1,?,3.8,-5,-0.4,0,16
COc1ccc(CNC(=O)CNC(=O)c2cccs2)c(OC)c1,-1.9%,-8.5,-1,-0.6,0,0
C=CCNCCCOc1ccc(Cl)cc1C(C)(C)C,-5.5%,-1.3,-40,-0.7,4,1

# As entered above:
# For D2 ag, COc1ccc2ccc(=O)oc2c1CC(=O)C(C)C shows -2.1
# For D2 ag, CCc1ccc(NC(=O)CSc2nnnn2-c2cccnc2)cc1 shows -1.5
# For D2 ag, O=C(CC(c1ccccc1)c1ccccc1O)NCCc1ccccc1 (configuration not stated) shows -2.1
# For PINK1 modulator, O=C(Nc1ccccc1F)Nc1ccccc1OC(F)F shows -1.2%
# For D2 PAM, COc1ccc(CNC(=O)CNC(=O)c2cccs2)c(OC)c1 shows -1
# For CtBP-E1A blk, CCOC(=O)c1sc(Nc2ccccc2)nc1C shows 8

# The results go on.
SMILES,PINK1 modulator,D2 ag,D2 PAM,TRPML1 ag,Six1-Eya2 blk,CtBP-E1A blk
Cc1cc(C)cc(C(=O)OCC(=O)NCc2ccco2)c1,4.8%,-3.9,-5,-0.1,-16,0
CCN(CC(=O)Nc1ccccc1C(F)(F)F)C(=O)c1ccc(=O)n(Cc2ccccc2)n1,-0.5%,-2.0,-16,-0.1,4,9
CC(=O)Nc1ccc(Nc2cc(-c3ccccc3)nc3ncnn23)cc1,7.0%,-2.4,6,0.8,1,-6
CCN(CC)S(=O)(=O)c1ccc(N2CCOCC2)c(NC(=O)Cc2ccccc2)c1,-0.3%,-4.4,-15,-0.4,5,-2
NNC(=O)c1nnn(-c2nonc2N)c1CN1CCc2ccccc2C1,0.2%,4.5,-4,0.3,-6,-6
Cc1ccnc(SCc2cc(=O)c(OC(=O)c3ccc(Cl)c([N+](=O)[O-])c3)co2)n1,13%,-3.8,-21,0.4,-10,25
COc1ccccc1C(CCNS(=O)(=O)c1ccc(C)cc1)c1ccco1 (configuration not stated),20%,-3.1,-13,4.3,-3,.
COc1ccc(/C=C/C(=O)c2ccc(Cl)cc2)c(OC)c1,8.6%,-0.2,-7,0.9,-9,-7
COc1ccc(N2CCN(C(=O)[C@@H](NC(=O)c3ccccc3Cl)C(C)C)CC2)cc1,-2.1%,-0.5,-5,-0.8,-3,0
O=Cc1ccc(OC(=O)/C=C/c2ccccc2)cc1,-1.5%,-0.7,-7,1.5,?,-94*
CC(C)(C)NC(=O)COC(=O)c1ccc2c(c1)C(=O)N(Cc1ccco1)C2=O,2.3%,-7.0,-8,-1.5,-26,0
COc1ccc(N=Cc2ccccc2O)cc1,0.5%,-2.1,-2,-0.4,-2,-12
O=C(C1CCCN(c2ncnc3c2nc2n3CCCCC2)C1)N1CCCCC1 (configuration not stated),0.7%,0.1,1,-1.0,4,7
CC(=O)NC(CC(=O)OCC(=O)c1c(N)n(C)c(=O)n(C)c1=O)c1ccccc1 (configuration not stated),-1.5%,-2.2,0,-0.2,-1,0
COc1ncnc2c1NC1=C(S2)C(=NCCC(=O)O)CC(C)(C)C1,-0.5%,2.6,-13,-0.1,-18,-3
O=C(O)C(O)C(O)c1nc2ccccc2[nH]1 (configuration not stated),-0.7%,1.5,-3,0.3,2,.
CC(C)CNc1ncnc2c1cnn2Cc1ccc(Cl)cc1,9.4%,3.3,7,1.5,12,-1
O=C(NCCn1cc(SCc2ccc(F)cc2)c2ccccc21)c1c(F)cccc1F,1.8%&7.4%,7.4,-4,0.9&2.3,-7,-6
CCc1ccccc1Nc1nc(N)nc(COC(=O)CCS(=O)(=O)c2ccccc2)n1,0.9%,-2.6,14,-0.3,-1,4
Cc1ccccc1NCCNc1ccccc1C,.,1.9,8,-0.3,-19,2
O=C(Nc1ccccc1CC[N+](=O)[O-])N1CCN(c2ccccc2)CC1,0.8%,-3.5,-9,1.0,-3,5
CC(C)(C)[C@H]1COC(=O)[C@@H](Cc2ccc(F)cc2)C/C=C\C[C@@H](CC(=O)N[C@@H](CO)Cc2ccccc2)C(=O)N1,0.4%,5.5,6,-0.5,-9,.
O=C(NCCC1=CCCCC1)c1ccc([N+](=O)[O-])cc1,1.4%,0.3,-19,2.0,-5,-1
COc1ccccc1CNC(=O)CN(C)S(=O)(=O)c1ccc(Br)s1,-2.0%,6.0,-1,0.6,-3,10
CCOC(=O)C(Cc1ccc(O)cc1)NC(=O)CCc1c[nH]c2ccccc12 (configuration not stated),0.0%,-0.3,-7,0.5,-4,.
Cc1cc(-c2cc(-c3ccc(Cl)cc3)on2)nc(NCC2CC2)n1,6.3%,-3.2,-8,0.4,1,4
O=C(Nc1ccccn1)c1ccc(CN(c2ccccc2)S(=O)(=O)c2ccccc2)cc1,0.6%,3.8,-1,1.3,-1,-2
CCCN(CC(=O)Nc1ccccc1C)C(=O)/C=C/c1ccc(OCC)c(OC)c1,1.2%,1.5,-1,-0.5,-6,-13
Clc1ccc(-c2ccc(/C=N/Nc3nncc(-c4ccccc4)n3)o2)cc1,1.6%,-2.5,-7,-0.5,-4,-7
Cc1ccc2nc(N3CCN(C(=O)c4ccccc4F)CC3)c(C#N)cc2c1,-0.1%,4.1,5,0.3,1,9
CCn1nnc(NC(=O)COc2cc(C)ccc2C(C)C)n1,4.9%[38.3 µM],1.2,1,2.3,7,8
Cc1ccc2oc(=O)c3cnn(CC(=O)N(CCN(C)C)Cc4ccco4)c3c2c1,7.0%,-7.3,-18,0.1,2,-4
Cc1c(N/C=C/C(=O)c2ccc(Cl)cc2)c(=O)n(-c2ccccc2)n1C,.,-1.9,-17,0.4,-2,2
COc1cc(CSc2ncn[nH]2)c(OC)cc1CSc1ncn[nH]1,4.6%[38.3 µM],-2.7,-18,0.1,-8,-3
Cc1cc(=O)oc2cc(OCc3ccc(C(=O)OCC(=O)NC4CCS(=O)(=O)C4)cc3)ccc12 (configuration not stated),5.9%,-2.0,-3,-0.4,-14,4

# From PubChem
